# NPYLR7 ag – activates Aedes aegypti NPYLR7 receptor; HEK293T NPYLR7/Galpha15, GCaMP6s calcium fluorescence; activation, % at 10 µM; 0.15% of 270,000 active; AID 1259423; in the data active means activation above about 40%;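 further: 0% = vehicle and 100% = reference agonist at the receptor; some compounds past the cut are filed as inactive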
# NPYLR7 ag max-min – recorded beside NPYLR7 ag, whose call it bears; activation, %; measured here: Max-Min RFU normalised activation; some inactives read as strong as hits;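 span of the calcium signal over five minutes; 0% = vehicle and 100% = native peptide agonist; compound fluorescence can raise it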
# * hit, by the source's call; & = joins results of further samples. A portion of the library; count on the stated rates, not on these rows.
# Results follow in this order: NPYLR7 ag, NPYLR7 ag max-min
1) O=C1CC(c2ccc(-c3ccccn3)cc2)c2ccc(O)cc2N1 (stereo not given)
  11.4, 4.9
2) O=C(c1ccno1)N(CCn1cccn1)c1nc2ccccc2s1
  -27.3, -30.9
3) Cc1nn(S(=O)(=O)c2ccc(C(C)(C)C)cc2)c(C)c1S(=O)(=O)N1CCCC(C)C1 (stereo not given)
  1.4, -0.5
4) CCc1nc2ccc(C(=O)N3CCN(c4ccccc4)CC3)cn2c1N(CC)Cc1cccc(Br)c1
  5.3, 5.0
5) COc1ccc(/C=N\NC(=O)Cc2nnc(NC(C)=O)s2)cc1
  1.6, -8.3
6) Cc1ccc(C)c(OCc2nnc(SCC#N)o2)c1
  2.3, -1.4
7) COc1ccc(-c2nnc(SCC(=O)N3CCC(C)CC3)o2)cc1
  8.5, 3.6
8) CCOCCCN(CC(=O)N(Cc1cccn1Cc1ccccc1Cl)CC(C)C)C(=O)C(C)(C)CCl
  0.8, 10.9
9) Cc1nnc(-c2cc3ccccc3n2CC(=O)Nc2cccc(C(F)(F)F)c2)o1
  23.5, 16.3
10) O=C(c1cccs1)N(CC(=O)N1CCc2sccc2C1COc1cccc(F)c1)Cc1ccco1 (stereo not given)
  -1.3, 3.9
11) Nc1nnc(-c2cc(-c3ccc(Cl)cc3)on2)o1
  4.7, -0.3
12) CCCN(Cc1cccc(Cl)c1)C(=O)CC1=CCNCC1
  9.6, 6.5
13) Cc1[nH]n(-c2nc(-c3ccc(Br)cc3)cs2)c(=O)c1N=Nc1ccc([N+](=O)[O-])cc1Cl
  -1.4, 7.5
14) CCCn1c(CCNC(=O)c2ccco2)nc2ccccc21
  -0.4, 6.8
15) O=[N+]([O-])C1C(=Nc2ccc(Cl)cc2)NN=C1c1nnco1 (stereo not given)
  -4.9, -4.3
16) Cc1noc(C)c1C(=O)OCc1cc(=O)n2ccsc2n1
  -2.7, -1.6
17) CCCc1nc(CN(CC)C(=O)C2=CC(=O)CC(C)(C)O2)no1
  -2.3, -15.7
18) CC(=O)Oc1ccccc1CN1C(=O)C(C)ON=C1c1ncccc1C (stereo not given)
  7.9, 6.9
19) O=C(O)CCCCCN1C(=O)C(=Cc2cccs2)SC1=S
  1.5, -1.1
20) Cn1c(=O)[nH]c(=O)c2c1ncn2CCN1CCOCC1
  -10.5, -11.0
21) Cc1ncsc1CN(Cc1ccccc1)C(=O)c1ccc2nc(C3CC3)oc2c1
  4.1, -0.7
22) Cn1c(C2CCN(S(C)(=O)=O)CC2)nn(Cc2ccc(F)cc2)c1=O
  4.0, 13.4
23) COc1ccc(-c2[nH]c(=S)[nH]c2-c2ccc(OC)cc2)cc1
  -0.3, -0.9
24) CNS(=O)(=O)c1ccc(CN(C)CC2Cc3ccccc3CN2C)cc1 (stereo not given)
  4.3, 3.5
25) CC(=O)Nc1cc(-c2ccccc2)nn1-c1ccc(C(=O)NCCC2=CCCCC2)cc1
  -4.5, -12.3
26) COCc1c(C(=O)OCC(=O)N2CCCC2=O)oc2ccccc12
  -0.2, -3.2
27) CCc1ccc(NC(=O)CN(C2CC2)C2CCS(=O)(=O)C2)cc1 (stereo not given)
  5.4, 3.6
28) Cn1nnc2c(C(N)=O)ncn2c1=O
  -10.6&-8.2, -5.0&-15.5
29) COc1ccc(C2(CNC(=O)N3CCSCC3)CCCCC2)cc1
  -0.7, 0.0
30) Cc1noc(-c2ccc(C(C)(C)C)cc2)c1C(=O)NCc1ccsc1
  2.9, 4.4
31) CC1CCN(c2onc(-c3ccccc3)c2CN(Cc2ccco2)C(=S)Nc2ccc(F)cc2)CC1
  2.7, 6.0
32) COc1ccc(-c2nc3scc(CCNS(=O)(=O)c4ccc(OC)c(F)c4)n3n2)cc1
  -18.9, -16.4
33) Cc1ccc(C)c(-n2cc(CN3CCN(C(=O)c4ncn[nH]4)CC3)c(-c3ccccc3)n2)c1
  6.8, 1.9
34) CCCC(C)NC(=O)CSc1nc2ccccc2c(=O)n1CCCN(CC)CC (stereo not given)
  -5.4, -8.7
35) COc1ccc(NC(=O)N2CCS(=O)(=O)C(C)(C)C2)cc1F
  0.0, 22.7
36) O=C(c1ccc(F)cc1C(F)(F)F)N1CCC(Cc2ccc3c(c2)OCO3)CC1
  23.7, 10.1
37) CCOc1ccc(C2C(C(=O)OC(C)C)=C(C)NC3=C2C(=O)CC(c2ccc(OC)cc2)C3)cc1OC (stereo not given)
  0.8, 1.7
38) CC(C)=CC(=O)OCC(=O)NC(C)(C#N)C(C)C (stereo not given)
  -4.7, 2.5
39) COc1ccc(-c2cnn(CCC(N)=O)c2)c(C)c1
  47.3*, 43.9*
40) COCCCNC(=O)c1nn(C)c2c1CN(C(=O)c1ccccc1-c1ccccc1C)CC2
  20.6, 7.1
41) COCCN(Cc1cc(NC(=O)c2cccc(F)c2)ccc1N(C)C)C(=O)c1cccc(F)c1
  4.4, 13.4
42) O=C1CCCc2nn(-c3ccccc3)nc21
  -0.8, 0.6
43) CSc1nc2ncc3c(=O)n(CCc4ccccc4)ccc3n2n1
  0.8, 5.4
44) CCC1(c2ccccc2)NC(=O)N(CC(=O)NC2CCCCCCC2)C1=O (stereo not given)
  7.0, 9.7
45) N=C1/C(=C\c2ccc(OC(=O)c3ccccc3F)c(Cl)c2)C(=O)N=C2SC=NN12
  5.3, 2.8
46) CCc1nc(Nc2ccc(F)cc2)c2ccc(Cl)cc2n1
  20.1, 17.3
47) CCOc1cccc2cc(C(N)=O)c(=N)oc12
  -4.3, -7.1
48) O=C(Nc1ccc(-c2nc3ccccc3o2)cc1)c1cccc(Cl)c1Cl
  -3.0, -1.2
49) Cc1ccc(S(=O)(=O)NC(=O)C2(C)CCN2C(=O)CC2CCCC2)nc1 (stereo not given)
  -3.8, -10.0
50) C=CCN(CC=C)c1cc(Cl)nc(SCc2ccc(C(=O)O)cc2)n1
  -8.1, -17.8
51) Cc1ccc2oc(C(=O)NCCc3ccccc3F)cc(=O)c2c1
  8.0, 4.8
52) CCCNC(=O)C(C)Nc1ccc(OCC)cc1 (stereo not given)
  -16.4, -24.6
53) COc1ccc(C(CC(=O)N2CCSCC2)c2ccccc2)cc1 (stereo not given)
  1.5, -3.4
54) O=[N+]([O-])c1c[n+]([O-])n(-c2ccc3c(c2)OCCO3)n1
  1.9, -8.1
55) CCCc1cc(CN(C)C(=O)C2CNCCO2)[nH]n1 (stereo not given)
  -7.4, -11.1
56) CC(=O)Nc1ccc(S(=O)(=O)N2CCN(c3cc(-n4ccnc4C)ncn3)CC2)cc1
  -10.1, -8.8
57) Cc1cc(C)nc(NS(=O)(=O)c2ccc(NC(=O)c3cc([N+](=O)[O-])ccc3Cl)cc2)n1
  -0.2, 0.1
58) COc1ccc(-c2cc(N)n(-c3ccc(C(=O)NCc4ccc(OC)cc4OC)cc3)n2)cc1
  -7.6, -13.8
59) COCCCNCc1c(-c2ccc(F)cc2)noc1N1CCOCC1
  46.2*, 45.3*
60) COc1ccc(C(=O)N2N=C(c3ccccc3)CC2c2ccc3nccnc3c2)cc1 (stereo not given)
  3.0, 6.4

# Record cards, as listed above. Values in the order: NPYLR7 ag, NPYLR7 ag max-min
# `CCOc1cccc2cc(C(N)=O)c(=N)oc12` in the list: -4.3, -7.1
# `CCc1nc(Nc2ccc(F)cc2)c2ccc(Cl)cc2n1` in the list: 20.1, 17.3

# (list continues)
# Results follow in this order: NPYLR7 ag, NPYLR7 ag max-min
61) CS(=O)(=O)Oc1ccc(CNCc2ccc(F)cc2)cc1
  11.9, 10.1
62) CCCCOc1ccc(-c2nc(C=Nc3ccccc3Br)c(O)o2)cc1
  -0.8, -4.8
63) CCCc1nc(NCc2cnc(C)cn2)c2cnn(C)c2n1
  -3.3, -4.2
64) COCCn1c(=C(C#N)C#N)sc(=Cc2ccc(C)s2)c1=O
  5.1, 7.3
65) CC(c1ccc(-c2ccccc2CO)cc1)N(C)C (stereo not given)
  8.2, 8.1
66) O=C(NCc1ccc2[nH]c3c(c2c1)CCCC3)c1cccc(N2CCNC2=O)c1
  6.0, 4.3
67) COc1ccc(-n2nnnc2SCc2ccc(C#N)cc2)cc1
  7.4, 4.4
68) CCc1noc(C)c1C(=O)N1CCCC2(C1)C(=O)N(C)c1ccccc12 (stereo not given)
  1.0, 9.4
69) CC1CC1c1ccc(CCC(=O)N(C)Cc2nc3ccccc3[nH]2)o1 (stereo not given)
  1.9, 3.0
70) CCOc1nc(-c2ccccc2C)n(-c2ccc(NC(=O)CCc3ccccc3)cc2)n1
  -9.9, -13.3
71) COc1ccc(N2C(=O)C(C)NC2=S)cc1NS(=O)(=O)c1ccc(F)cc1 (stereo not given)
  17.7, 13.6
72) COc1ccc(CC(=O)Nc2cc(C)nn2-c2nc3c(c(=O)[nH]2)CCC3)cc1OC
  7.3, -0.1
73) Cc1nc2ccc(N)cc2s1
  1.4, -0.8
74) CCC(=O)Nc1ccc(N(C)C)c(CN(Cc2ccccc2)C(=O)c2ccccc2Cl)c1
  -19.5, -12.0
75) CCCCCCc1nc(C(N)=O)c2[nH]c(=O)n(-c3ccc4c(c3)OCO4)c2n1
  12.9, 7.3
76) Cc1nc(C)c(CNC(=O)NCC(=O)N2CCc3ccccc32)s1
  2.8, 0.0
77) N[C@@H](Cc1c[nH]c2ccccc12)C(=O)O
  0.4, 5.1
78) CCOc1ccc(-n2c(CNC(=O)c3ccco3)nnc2SCC(=O)Nc2ccc(OC)cc2)cc1
  5.9, 1.2
79) CCSc1nc2c(c(=O)[nH]1)C(c1ccc(C)o1)C1C(=O)CCCC1=N2 (stereo not given)
  4.2, 1.1
80) O=C(O)CC(Br)C(=O)c1ccc(F)cc1 (stereo not given)
  -7.3, -12.1
81) Cc1cc[n+]2c(O)c(-c3ccccc3)sc2n1
  0.0, 3.0
82) CCC(Sc1nnc(C2CC2)n1CCC(N)=O)c1ccccc1 (stereo not given)
  11.0, 6.5
83) CNC(=O)COc1cccc(CNC(=O)NCC2CC2C)c1 (stereo not given)
  1.8, -4.4
84) CSc1ccc(C(NC(=O)c2cccc(SC(F)F)c2)c2cccc(Cl)c2Cl)cc1 (stereo not given)
  -9.4, -14.5
85) COC1=CC(=O)C=C(OC)C12CC(C)(C)N=C2SC
  2.8, 1.7
86) c1cncc(CN(Cc2cccc3nonc23)CC2CCCN(C3CCCCC3)C2)c1 (stereo not given)
  -1.6, -4.4
87) O=C(NCCCCNC(=O)c1ccc(Br)s1)c1ccc(Br)s1
  4.2, 2.7
88) Cc1cc(C(=O)CSc2nnc(-c3cccs3)o2)c(C)n1C1CC1
  1.8, -0.4
89) COC(=O)N1CCN(CCNC(=O)c2cnc3ccccc3n2)CC1
  -1.7, -3.0
90) C=Cn1cc(CN2CCCC(CNC(=O)c3ccncc3C)C2)cn1 (stereo not given)
  -1.0, -3.6
91) O=C(CCC(F)(F)F)NCc1cccnc1Oc1ccccc1F
  1.2, 0.0
92) Nc1ccc(SC2C3CC4C2OC(=O)C4C3C(=O)O)cc1 (stereo not given)
  3.4, 3.0
93) COc1ccc2cc(C(=O)C3CCCN(Cc4cnc(N(C)C)s4)C3)ccc2c1 (stereo not given)
  15.6, 2.5
94) C/C=C/Cn1c(C(=O)O)cc2sc(C)cc21
  -2.9, -3.9
95) CCn1cnnc1CNC(=O)c1ccc(N2CCCCCC2)nc1
  3.0, 2.4
96) Nc1nccnc1C(=O)OCC(=O)NC(=O)OCc1ccccc1
  0.0, 1.3
97) CC(C)C(C)NC(=O)CSc1nnc(-c2cccs2)n1C1CC1 (stereo not given)
  21.0, 19.5
98) O=C1C2=C(Nc3ccccc3SC2c2cccnc2)c2ccccc21 (stereo not given)
  6.2, 6.5
99) COc1cccc(C2CCCN2S(=O)(=O)c2ccc(Cl)cc2C(F)(F)F)c1 (stereo not given)
  20.4, 22.0
100) OC(c1cccs1)C1CCN(Cc2ccc(-n3cncn3)cc2)CC1 (stereo not given)
  2.1, 1.8

# As entered above:
# cpd 92 in NPYLR7 ag → 3.4
# cpd 96 in NPYLR7 ag → 0.0

# Along the list, as entered above.
# NPYLR7 ag for entries 16–20, in order: -2.7, -2.3, 7.9, 1.5, -10.5
# NPYLR7 ag max-min for entries 16–20, in order: -1.6, -15.7, 6.9, -1.1, -11.0

# (cont.)
# Results follow in this order: NPYLR7 ag, NPYLR7 ag max-min
101) O=C(Nc1ccc(F)cc1F)c1cccn(OCc2ccccc2)c1=O
  1.0, 10.0
102) O=C(Cn1c(=O)[nH]n(-c2ccccc2)c1=O)N1CCc2ccccc2C1
  -1.1, -6.0
103) CCOc1ncccc1C(=O)N1CCCC(N2CCC(CO)CC2)C1 (stereo not given)
  25.7, 8.9
104) COc1ccc2c(c1)CCC1=C2CCC2(C)C(=O)CC=C12 (stereo not given)
  -7.2, -10.1
105) COc1ccc(CN2CCCn3cccc3C2c2cccc(C(F)(F)F)c2)c(OC)c1 (stereo not given)
  -2.8, 3.0
106) O=C1NCCN(C(=O)c2cnnn2-c2ccccc2)C1c1ccc(F)cc1 (stereo not given)
  7.8, 4.8
107) CCCCc1ccc(C(=O)N(CCC(C)C)Cc2c(C)nn(-c3ccccc3)c2N2CCN(C)CC2)cc1
  -0.6, 1.1
108) O=C(c1ccc(N2CCC(NCc3ccc(C(F)(F)F)cc3F)CC2)cc1)N1CCOCC1
  18.1, 2.3
109) COc1ccc(C(=O)Nc2ccc(-c3nc4cc(Cl)ccc4o3)cc2)cc1OC
  -4.3, -6.6
110) CCCCC(=O)Nc1ccc(NC(=O)C2C=CCN2)cc1 (stereo not given)
  -0.2, -1.5
111) COc1cccc(C(=O)N(CCN2CCOCC2)Cc2csc(COc3ccccc3C)n2)c1
  -1.4, 4.5
112) CCOC(=O)c1c(NC(=O)C(F)(F)C(F)F)c(-c2cccc(F)c2)cn1C
  4.2, 2.5

# Among those listed so far, 4 contain a cyano group:
# Results follow in this order: NPYLR7 ag, NPYLR7 ag max-min
6) Cc1ccc(C)c(OCc2nnc(SCC#N)o2)c1
  2.3, -1.4
38) CC(C)=CC(=O)OCC(=O)NC(C)(C#N)C(C)C (stereo not given)
  -4.7, 2.5
64) COCCn1c(=C(C#N)C#N)sc(=Cc2ccc(C)s2)c1=O
  5.1, 7.3
67) COc1ccc(-n2nnnc2SCc2ccc(C#N)cc2)cc1
  7.4, 4.4
